GIV-Gai inh: blocks GIV peptide binding to rat Galpha-i3; P08753; Galpha-i3/FITC-GIV peptide fluorescence polarization, 90 min; active compounds read low; scaled: aluminum fluoride 0%, vehicle 100%; percent of control (FP), % (concentration not given with the values); 210,000 compounds, 0.42% hits;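 active = replicate mean at 85% of control or lower, very high polarization wells dropped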;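 also: wells of about 15 µL received 100 nL stock; the first replicate is given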
Target sequence (P08753 whole entry, looked up): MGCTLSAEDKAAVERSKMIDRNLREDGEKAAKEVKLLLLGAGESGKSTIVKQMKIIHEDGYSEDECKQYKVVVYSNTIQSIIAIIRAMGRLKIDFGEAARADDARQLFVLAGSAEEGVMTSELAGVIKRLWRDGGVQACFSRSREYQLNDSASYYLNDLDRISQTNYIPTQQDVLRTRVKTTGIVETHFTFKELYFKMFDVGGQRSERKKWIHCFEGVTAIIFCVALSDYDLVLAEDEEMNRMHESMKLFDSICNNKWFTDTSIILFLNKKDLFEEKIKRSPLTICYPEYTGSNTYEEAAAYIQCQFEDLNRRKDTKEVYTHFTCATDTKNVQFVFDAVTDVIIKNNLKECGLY
HCMV UL50-53 inh: cytomegalovirus nuclear egress complex inhibition; HTRF UL50-UL53 interaction, normalized percent inhibition; inhibition, % (no concentration beside the values); 190,000 compounds, 0.15% hits;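 active = both replicates at 50% or more, plus weaker picks with an unusually low signal ratio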;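 also: stock transfer was 100 nL into about 20 µL; 0% = negative control wells and 100% = wells with untagged competitor protein; inactives centre near -12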
Sa growth 42C: S. aureus growth inhibition; AID 720641; relative growth, % (no concentration beside the values); S. aureus RN4220 growth, OD600, 20 h, 42 °C; active compounds read low; 170,000 compounds, 0.53% hits;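 active = growth at 42 °C up to 50% and 20 or more points under that at 30 °C, or under 10% at both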;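 also: 300 nL library stock went into each well; scaled to the means of positive and negative controls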
Sa growth 42C second temp: second read-out of Sa growth 42C, no call of its own (marks repeat the call); relative growth, %; measured here: growth at 30 °C;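 optical density after 20 h as mean of two plates; 100% = untreated growth and lower means inhibition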
* marks the source's active call; other numbers are inactive results; . = not tested or not shown.

SMILES	GIV-Gai inh	HCMV UL50-53 inh	Sa growth 42C	Sa growth 42C second temp
CC(C)CN1CC(c2nc3ccccc3[nH]2)CC1=O (stereo not given)	101	12	.	.
O=C(c1cccc(S(=O)(=O)N2CCCCC2)c1)N1CCCCC1	.	-2	86	97
Nc1cc(=O)[nH]c(=S)n1-c1cccc(C(F)(F)F)c1	102	4	105	92
CC1=C(C(=O)OCc2ccccc2)OC(N)=C(C#N)C1c1ccc(F)cc1 (stereo not given)	.	-14	85	73
O=C1c2ccccc2C(=O)N1n1c(=O)[nH]c2ccccc2c1=O	97	-6	123	102
Cc1cc(CNC(C)c2cc3ccccc3o2)c(C)n1-c1cccc(S(=O)(=O)N2CCOCC2)c1 (stereo not given)	.	-12	102	84
O=C(COC(=O)c1ccc(N2C(=O)CCC2=O)cc1)Nc1cccc(Cl)c1	.	-9	89	82
CCc1ccc2ncc3c(-c4ccc(F)cc4)n[nH]c3c2c1	98	-12	.	.
Cc1nc2nc(C3CCCCC3)nn2c(C)c1CC(=O)N1CCc2ccccc2C1	96	2	.	.
Cc1cc(N2CCCC2)n2nc(Cc3ccccc3)nc2n1	99	-7	.	.
COC(=O)c1sccc1S(=O)(=O)NC1CCS(=O)(=O)C1 (stereo not given)	105	22	107	94
COC(=O)/C(C(C)=N)=C(\O)CSc1ccc(Cl)cc1	.	-28	91	84
O=C(c1cc(-c2ccc(Cl)cc2)n[nH]1)N1CCN(S(=O)(=O)c2ccc(Br)s2)CC1	100	.	135	103
COc1ccccc1Nc1n[nH]c(=S)n1C(=O)c1cccs1	100	-9	124	98
COc1cc(NC(=O)C2CC(=O)NC3=C2C(=O)CCC3)cc(OC)c1 (stereo not given)	98	.	102	83
O=C(CC(=O)Nc1ccccc1)Nc1ccccc1	111	-7	93	83
CC(=O)Nc1ccc(NC(=O)CSc2nnc3ccccn23)cc1	.	-2	100	88
Cc1ccc(C(O)C(C)C)cc1 (stereo not given)	107	0	106	105
CCOC1=NOC2C3CCC(C3)C12 (stereo not given)	.	-15	79	86
O=C(Cn1c(SCc2cccc(Cl)c2)nc2ccncc21)NCC1CCCO1 (stereo not given)	106	.	98	87
Cc1ccccc1NC(=O)N(Cc1cccs1)C(=O)CC#N	112	15	97	94
Cc1nn(Cc2ccccc2)c(C)c1S(=O)(=O)N1CCN(C(=O)c2cc3ccccc3[nH]2)CC1	106	-12	.	.
NC(=O)COC(=O)C12CC3CC(CC(O)(C3)C1)C2	.	-6	94	94
Oc1c(C(c2ccccc2Cl)N2CCC(O)CC2)sc2nc(-c3ccco3)nn12 (stereo not given)	99	.	110	88
COc1cccc(-c2nc(S(=O)(=O)c3ccc(C)cc3)c(N3CCCCC3)o2)c1	100	-1	117	93
Going on with the list.
SMILES	GIV-Gai inh	HCMV UL50-53 inh	Sa growth 42C	Sa growth 42C second temp
COC(=O)CCS(=O)(=O)c1nc(-c2cccs2)cc(C(F)(F)F)n1	105	.	1.4*	-0.4*
O=C1COc2ccc(S(=O)(=O)N3CCN(C(=O)C4CC(=O)N(c5cccc(Cl)c5)C4)CC3)cc2N1 (stereo not given)	108	-27	.	.
CCOC(=O)c1ccc(NCc2ccccc2O)cc1	107	0	85	57
COc1cccc(-n2ccnc2SCC(=O)NCc2ccc3c(c2)OCO3)c1	106	.	119	87
CCC(=O)N1CCc2cc(Br)c(S(=O)(=O)CCC(=O)N3CCC(C)CC3)cc21	102	-1	.	.
O=c1cc(CSc2n[nH]c(=O)n2-c2cccnc2)c2ccc(O)cc2o1	102	-44	99	89
Cc1nc2nc(-c3ccc(C(C)(C)C)cc3)nn2c(C)c1CC(=O)NC(C)C	106	-21	.	.
Cc1ccc(OCC(=O)N2CCCCC2)c(C)c1	.	-8	115	89
COc1ccc(C)cc1NC(=O)c1ccc(S(C)(=O)=O)cc1	.	8	110	103
CC(=O)Oc1ccc2c(=O)c(Oc3ccc(Cl)cc3)c(C)oc2c1	92	-56	98	80
COc1ccc(C(=O)N2CC(C)CC(C)C2)cc1 (stereo not given)	103	-14	109	84
O=C(CCC1N=C2c3ccccc3N=C(SCC(=O)Nc3ccc(F)cc3)N2C1=O)NCc1ccco1 (stereo not given)	112	.	108	94
O=C(CSc1nnnn1-c1ccc(O)cc1)c1cc(C(F)(F)F)cc(C(F)(F)F)c1	99	2	83	93
O=C(O)/C(=C(/O)c1ccccc1)c1nc2ccccc2[nH]1	.	0	101	89
Cc1c(C)n(Cc2ccccc2)c2ccc(C(=O)N3CCN(c4ccccc4F)CC3)cc12	102	.	100	84
Cc1ccc2ncc(C(=O)c3ccc(C)c(C)c3)c(S(=O)(=O)c3ccc(F)cc3)c2c1	101	-30	124	90
C=CCNC(=O)c1ccccc1Sc1ccccc1C#N	99	-4	.	.
O=C(O)c1c(CNC2CCCC2)c2ccccc2n1Cc1ccccc1	123	.	103	82
COc1ccccc1CNC(=O)c1ccc(CSc2nc3ccncc3n2Cc2cccc(F)c2)cc1	102	-6	119	112
COC(=O)C1=C(C)Nc2ncnn2C1c1ccncc1 (stereo not given)	102	-2	105	97
COC(=O)C1C(c2ccccc2)C(C(=O)N2CCN(C)CC2)C1c1ccccc1 (stereo not given)	105	-19	105	89
Cc1ccsc1C(=O)N1CCCSC1=Nc1ccccc1	.	10	84	94
CCOC(=O)c1cn(CC(=O)NCc2ccc(OC)cc2)c2nc(C)ccc2c1=O	104	-2	.	.
CC1=C(C(=O)Nc2ccccc2C)C(c2cccs2)n2nc(SCc3cc(C)ccc3C)nc2N1 (stereo not given)	108	.	103	98
COc1cc(OC)nc(NC(=S)Nc2ccc(F)cc2)n1	104	12	126	99

Structures shown so far with an aryl methoxy group:
SMILES	GIV-Gai inh	HCMV UL50-53 inh	Sa growth 42C	Sa growth 42C second temp
COc1ccccc1Nc1n[nH]c(=S)n1C(=O)c1cccs1	100	-9	124	98
COc1cc(NC(=O)C2CC(=O)NC3=C2C(=O)CCC3)cc(OC)c1 (stereo not given)	98	.	102	83
COc1cccc(-c2nc(S(=O)(=O)c3ccc(C)cc3)c(N3CCCCC3)o2)c1	100	-1	117	93
COc1cccc(-n2ccnc2SCC(=O)NCc2ccc3c(c2)OCO3)c1	106	.	119	87
COc1ccc(C)cc1NC(=O)c1ccc(S(C)(=O)=O)cc1	.	8	110	103
COc1ccc(C(=O)N2CC(C)CC(C)C2)cc1 (stereo not given)	103	-14	109	84
COc1ccccc1CNC(=O)c1ccc(CSc2nc3ccncc3n2Cc2cccc(F)c2)cc1	102	-6	119	112
CCOC(=O)c1cn(CC(=O)NCc2ccc(OC)cc2)c2nc(C)ccc2c1=O	104	-2	.	.
COc1cc(OC)nc(NC(=S)Nc2ccc(F)cc2)n1	104	12	126	99

Next results.
SMILES	GIV-Gai inh	HCMV UL50-53 inh	Sa growth 42C	Sa growth 42C second temp
O=C1CNC(=O)N1/N=C/c1ccc(Cl)cc1Cl	.	-9	79	85
O=C(c1ccc(CN2CCc3ccccc3C2)cc1)N1CCN(c2ccccc2)CC1	100	-11	.	.
CCc1cc(=O)oc2cc(C)cc(OCC(=O)c3ccc(F)cc3)c12	.	7	108	96
Cc1cc(C)n2nc(CN(C(=O)CC(C)C)c3ccc(Cl)cc3)nc2n1	104	9	.	.
Cc1ccc(S(=O)(=O)N2CCc3cc(C(=O)Nc4ccc(Cl)cc4C)ccc32)cc1	106	-37	91	78
CC(C)CCNC(=O)c1ccc(S(=O)(=O)C(F)F)cc1	.	-12	78	84
O=C(CCS(=O)(=O)c1cccc2nonc12)N1CCc2ccccc21	106	-10	129	88
O=c1[nH]ccn(Cc2ccc(Cl)cc2)c1=O	99	-28	90	90
Cc1nnc(NC(=O)C2CCN(S(=O)(=O)/C=C/c3ccccc3)CC2)o1	.	-32	70	90
O=C(OC(C(=O)c1ccccc1)c1ccccc1)c1cccnc1Cl (stereo not given)	.	-19	111	92
CN(C(=O)CSc1c2c(nc3ccccc13)CCCC2)C1CCCCC1	106	.	104	92
CCc1ccc(NCc2cc3ccc(OC)cc3n(CC(=O)Nc3ccc(F)cc3F)c2=O)cc1	101	.	80	81
Cc1ccc(-c2nnc(Nc3ccccc3)c3ccccc23)cc1S(=O)(=O)N1CCN(C)CC1	111	-18	111	89
Cc1nnc2ccc(Cl)nn12	110	-31	87	98
[O-]/[N+](=C/c1ccc(C(F)(F)F)cc1)c1ccccc1	101	-42	93	104
COc1ccc(S(=O)(=O)c2nnn(-c3cccc(Cl)c3)c2N)cc1	104	-25	89	88
CSc1ccccc1NC(=O)COC(=O)CN1C(=O)CSc2ccccc21	.	-16	94	87
Cc1ccc2oc(=O)n(CC(=O)C(C)(C)C)c2c1	101	-22	111	81
COc1cccc2c1OCC(C(=O)n1cccn1)=C2	97	-30	.	.
O=C(NC1CCCc2ccccc21)C1=Cc2cc(Cl)ccc2OC1 (stereo not given)	103	-23	80	70
CCc1ccc2c(c1)-c1ccccc1S(=O)(=O)N2CC(=O)NC(C)C	98	-14	.	.
CC(=O)N1CCC2(CC1)OC(=O)C(C)=C2C(=O)Nc1cccc(Cl)c1C	102	.	95	91
Cc1cc(N2CC(C)OC(C)C2)nc2ccccc12 (stereo not given)	.	-6	92	94
CCOC(=O)CS(=O)(=O)Cc1nc(-c2ccc(OC)c(OC)c2)no1	105	7	95	95
Cc1nc2nc(COc3ccccc3)nn2c(C)c1Cl	100	-20	.	.
Next section:
SMILES	GIV-Gai inh	HCMV UL50-53 inh	Sa growth 42C	Sa growth 42C second temp
CC(=O)Nc1ccc(S(=O)(=O)N(Cc2ccco2)S(=O)(=O)c2ccccc2F)cc1	.	-42	77	69
CCc1cc2c(cc3n2CC(C)(C(=O)NC2CCCCC2)N(c2cc(OC)ccc2OC)C3=O)s1 (stereo not given)	99	-15	.	.
COc1cc2c(cc1OC)C(COc1ccccc1OC)N(C(=O)c1ccc(Br)o1)CC2 (stereo not given)	102	-20	106	89
CCc1cccc(C)c1NS(=O)(=O)c1c(C(=O)N2CCC(C)CC2)c(C)n(C)c1C	99	.	94	81
Cc1ccc(Nc2nnc(SCC(=O)NC(C)C)s2)cc1	.	8	90	94
O=C(Nc1nnc(CCS(=O)(=O)c2ccc(Br)cc2)s1)c1ccc(Cl)cc1	102	-4	.	.
Cc1cc(C(C)(C)C)ccc1NC(=O)COCC(=O)O	103	-16	116	90
Cc1nc2ccc(NC(=O)CSc3nc4ccccc4[nH]3)cc2[nH]1	100	7	90	98
O=C(NCc1n[nH]c(=O)c2ccccc12)Nc1ccccc1	98	-30	81	86
COC(=O)c1cc(-c2ccc(C)cc2)no1	103	-78	108	74
CC(C)(C)NC(=O)CN1CCN(c2cc(C(=O)O)c3cc(NC(=O)C4CCCC4)ccc3n2)CC1	114	-33	.	.
CN(C)CC(C)(C)CNc1nc(-c2cccnc2)nc2ccccc12	.	-22	69	93
COc1cc(OC)nc(OC)n1	101	-19	95	89
COC(=O)CSc1nc2cc(Cl)ccc2c(=O)n1C1CCCC1	.	-3	96	92
Cc1ccccc1COC(=O)c1nnn(-c2ccc(Br)cc2)c1C	102	22	.	.
COc1ccc(CNC(=O)c2ccc(CN3CC(=O)N4CCCCC4C3=O)cc2)cc1 (stereo not given)	105	-11	.	.
COC(=O)c1ccc(CSc2nnc(-c3cc(C)ccc3NC(C)=O)c(=O)[nH]2)cc1	98	-23	.	.
CC(=O)N(CC12CC3CC(CC(C3)C1)C2)C1CC(=O)N(c2cccc(Cl)c2)C1=O (stereo not given)	.	-2	105	80
Cc1cc2n(n1)CCC(=O)N2Cc1ccc(C(=O)Nc2cc(Cl)ccc2C)cc1	104	.	93	67
CC1CCN(C(=O)CSc2n[nH]c(-c3ccc(F)cc3)n2)CC1	104	.	98	91
COC(=O)c1cccc(CN2C(=O)SC(Nc3ccc(Cl)cc3)C2=O)c1 (stereo not given)	101	3	106	86
CC1(C(=O)NC2CCCCC2)Cc2ccccc2C(=O)N1Cc1ccccc1Cl (stereo not given)	100	-32	99	87
O=C(On1c(-c2ccccc2F)nc2ccccc2c1=O)c1ccccc1[N+](=O)[O-]	99	-22	.	.
O=C(O)CCN1C(=O)SC(CC(=O)Nc2nccs2)C1=O (stereo not given)	98	.	107	88
COc1ccc(NC(=O)c2cc(=O)c3ccc(C)cc3o2)cc1	101	-15	94	91
The list continues:
SMILES	GIV-Gai inh	HCMV UL50-53 inh	Sa growth 42C	Sa growth 42C second temp
CCC1(C)NC(=O)N(/N=C/c2c(C)nn(Cc3c(Cl)cccc3Cl)c2SCC(=O)O)C1=O (stereo not given)	.	8	112	100
COc1ccc(-c2cc(C(F)(F)F)n3nc(C(=O)OC(C)C)cc3n2)cc1	99	.	93	90
COc1ccc(C2=NN3C(C2)c2cc(Br)ccc2OC3c2ccc(OC)c(OC)c2)cc1OC (stereo not given)	99	-28	.	.
CCOC(=O)C1=C(C)N=c2s/c(=C/c3ccccc3OC)c(=O)n2C1c1ccc(OC)c(OCC)c1 (stereo not given)	95	2	.	.
Cc1cc(Cl)ccc1OCC(=O)NCC12CC3CC(CC(C3)C1)C2	.	-1	94	74
Cc1ccc2c(c1)c1c(n2CCC#N)CCN(C)C1	94	-15	92	87
O=C(Cn1[nH]c(=O)c2ccccc2c1=O)N1CCCCCC1	.	-4	89	100
O=C(NC1CCS(=O)(=O)C1)Sc1ccccc1 (stereo not given)	99	2	101	52
c1coc(C2Nc3ccccc3C3OCCC23)c1 (stereo not given)	101	-28	94	90
Cc1cc(-c2csc(-c3cccs3)n2)c(C)n1C	.	-36	106	84

Reformatted with values under each structure: entries from further up
Order of values – GIV-Gai inh, HCMV UL50-53 inh, Sa growth 42C, Sa growth 42C second temp
COc1ccc(C2=NN3C(C2)c2cc(Br)ccc2OC3c2ccc(OC)c(OC)c2)cc1OC (stereo not given)
→ 99, -28, ., .
O=C(NC1CCS(=O)(=O)C1)Sc1ccccc1 (stereo not given)
→ 99, 2, 101, 52
